Arbovirus inh: antivirals against arbovirus infection, primary screen, cell-based, full library, 10K replicate subset; arbovirus infection cell-based antiviral screen; inhibition, % at 10 µM; 200,000 tested, 0.37% active;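 active = inhibition from about 30%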;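 note: bluetongue infection of BSR cells; cell survival read as ATP light after 72 h; 0% = infected wells without compound and 100% = uninfected wells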
YopH PTP inh: YopH tyrosine phosphatase inhibitors, primary screen, biochemical, fluorescence Ex485/Em525 | inhibition, %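 (about 10 µM by stock and volumes)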 | 140,000 tested, 0.16% active | YopH tyrosine phosphatase [Yersinia enterocolitica] | AID 898, 2007;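 active = inhibition of 50% or more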;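 note: controls were vehicle for no effect and minimum signal wells for full effect; inactives centre near -20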
Mtb bLac sens: beta-lactam sensitization of Mtb H37Rv, H37Rv. M. tuberculosis H37Rv growth with meropenem, percent inhibition; hits of this screen are not shown here. inhibition, % at 25 µM. 330,000 tested, 0.27% active;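 active = about 74% or more and at least 40 points above the plate without the antibiotic, then above 30% in a dose series; inconclusive = first-round hits that could not be retested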;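 note: growth measured after seven days incubation then overnight dye step; 0% = bacteria only wells and 100% = bacteria with antibiotic; twin plates without the antibiotic show which effects depend on it; some results filed as inactive read as strong as hits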
Mtb H37Rv: M. tuberculosis H37Rv growth inhibitors, H37Rv strain (AID 1626) | M. tuberculosis H37Rv growth inhibition; higher % means a stronger effect | one-dose inhibition, % at 10 µM; IC50 in µM for titrated hits | 220,000 tested, 0.95% active;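 active = confirmed in a dose series; inconclusive = inhibition above 80% but not taken into the dose series; inactive = below 80% or under 30% at every dose of the series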;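 note: bacteria incubated seven days before Alamar blue readout; 0% = bacteria only wells and 100% = bacteria with antibiotic wells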
RecA splice inh: Mtb RecA intein splicing inhibitors, primary screen, biochemical, fluorescence, HTS | inhibition, %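 (about 9 µM by stock and volumes)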 | 290,000 tested, 0.75% active | cell-free RecA intein splicing; in the data active = inhibition above about 30%; inconclusive = no clear call, values can overlap the other calls;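 note: 0% = vehicle wells and 100% = reference inhibitor control wells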
Target sequence (P9WHJ3 whole entry, looked up, canonical isoform): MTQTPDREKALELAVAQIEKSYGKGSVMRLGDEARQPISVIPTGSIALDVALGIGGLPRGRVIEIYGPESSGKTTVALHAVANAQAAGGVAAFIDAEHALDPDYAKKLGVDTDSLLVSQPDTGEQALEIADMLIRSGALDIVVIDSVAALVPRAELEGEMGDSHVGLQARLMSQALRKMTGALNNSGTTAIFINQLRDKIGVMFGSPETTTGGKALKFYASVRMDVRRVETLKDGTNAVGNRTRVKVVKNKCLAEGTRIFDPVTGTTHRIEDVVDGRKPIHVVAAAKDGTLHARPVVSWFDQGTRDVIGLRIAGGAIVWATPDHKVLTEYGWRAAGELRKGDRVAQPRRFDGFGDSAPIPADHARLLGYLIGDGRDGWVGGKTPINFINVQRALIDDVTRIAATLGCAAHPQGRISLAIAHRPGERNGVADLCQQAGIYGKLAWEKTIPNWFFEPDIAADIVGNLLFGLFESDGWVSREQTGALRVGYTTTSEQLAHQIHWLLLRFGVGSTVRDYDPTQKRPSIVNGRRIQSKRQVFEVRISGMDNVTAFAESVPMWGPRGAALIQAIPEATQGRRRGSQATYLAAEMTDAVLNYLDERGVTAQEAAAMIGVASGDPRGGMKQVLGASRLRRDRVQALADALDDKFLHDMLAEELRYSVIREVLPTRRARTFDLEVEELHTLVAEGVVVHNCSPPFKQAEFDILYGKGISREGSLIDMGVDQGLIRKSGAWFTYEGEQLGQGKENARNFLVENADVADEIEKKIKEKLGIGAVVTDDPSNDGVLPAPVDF
Arbovirus inh repeat: recorded beside Arbovirus inh, whose call it bears; inhibition, %; measured here: 10K subset replicate screen; many hits read low in the repeat;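 first of two repeat runs on a subset; 0% = infected and 100% = uninfected wells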
Numbers without * were called inactive; ? = inconclusive; nt = not tested or not shown. This is a subset, so the mix of outcomes need not match the whole.

SMILES	Arbovirus inh	YopH PTP inh	Mtb bLac sens	Mtb H37Rv	RecA splice inh	others
O=C(CNC(=O)c1ccccc1)NCC(=O)OCc1ccccc1Cl	3.7	nt	0.6	-4.8%	-1.1
O=C(COc1cccc(-n2cnnn2)c1)Nc1ccc([N+](=O)[O-])cc1	nt	nt	-0.5	nt	-1.1
Cc1ccc(OCC(=O)N(Cc2ccccc2)c2ccccn2)cc1	-3.3	nt	5.3	-7.1%	0.6
CSc1ncccc1C(=O)N(C)CC(=O)Nc1cccc(F)c1	nt	nt	-8.0	nt	3.3
Cc1c(N2C(=O)C(C)SC23C(=O)Nc2ccccc23)c(=O)n(-c2ccccc2)n1C (stereo not drawn)	-2.5	-36.1	-12.7	-12.5%	0.1
Cn1c(N)c(C#N)c(C#N)c1-c1ccccc1	nt	-40.2	-2.7	-7.5%	nt
COc1ccc(-c2csc3ncnc(N4CCN(S(=O)(=O)c5ccc(C)cc5)CC4)c23)cc1	nt	nt	-1.2	nt	-0.1
N#Cc1cccc(NC(=O)Cn2cnc(S(=O)(=O)N3CCOCC3)c2)c1	nt	nt	4.6	nt	-4.2
CCCCc1ccc(C2C3=C(CC(C)(C)CC3=O)NC3=C2C(=O)c2ccccc23)cc1 (stereo not drawn)	-3.1	-23.1	91.5	3.09µM*	10.1
O=C(Nc1ccc(F)cc1)c1cc2cc(Cl)ccc2[nH]1	nt	nt	-1.2	nt	-0.2
CN(C[C@@H](CC1CCCCC1)N(C[C@H](Cc1ccccc1)N(CCc1ccccc1)N=O)N=O)N=O	7.8	nt	-0.9	0.3%	2.1
Clc1ccccc1C1CC(c2ccccc2)=Nc2ccccc2N1 (stereo not drawn)	nt	nt	7.3	-1.7%	10.5

Fetched by compound from the list above:
SMILES	Arbovirus inh	YopH PTP inh	Mtb bLac sens	Mtb H37Rv	RecA splice inh	others
COc1ccc(-c2csc3ncnc(N4CCN(S(=O)(=O)c5ccc(C)cc5)CC4)c23)cc1	nt	nt	-1.2	nt	-0.1
CSc1ncccc1C(=O)N(C)CC(=O)Nc1cccc(F)c1	nt	nt	-8.0	nt	3.3
O=C(Nc1ccc(F)cc1)c1cc2cc(Cl)ccc2[nH]1	nt	nt	-1.2	nt	-0.2

(continued)
SMILES	Arbovirus inh	YopH PTP inh	Mtb bLac sens	Mtb H37Rv	RecA splice inh	others
COc1cccc(NC(=O)CCc2c(C)nn(-c3ccc(N4CCOCC4)nn3)c2C)c1	nt	nt	1.8	nt	-2.1
O=C(O)C1Nc2c(cccc2C(F)(F)F)C2C=CCC12 (stereo not drawn)	nt	nt	6.0	nt	9.6
O=C(CSc1n[nH]c(=O)[nH]c1=O)NCC1CCCCC1	nt	nt	-3.8	-6.3%	0.1
Cc1nnc(NC(=O)c2ccco2)s1	1.3	-25.4	-3.0	0.0%	0.3	Arbovirus inh repeat=-1.7
Cc1ccc(C)n1-c1ncc(Br)cn1	0.8	nt	-2.4	2.9%	2.2
COc1ccc(-n2c(CN3CCN(c4ccc(F)cc4)CC3)nc3ccc([N+](=O)[O-])cc3c2=O)c(OC)c1	nt	nt	1.3	nt	1.1
CCCCCCCCCC(=O)OCC(O)CO (stereo not drawn)	12.1	-40.7	0.7	-0.3%	2.5
CCCC(C)C(=O)Nc1ccc(NC(C)=O)cc1 (stereo not drawn)	1.2	-19.6	-5.6	4.3%	1.6
Cc1ccccc1NC(=O)CCCSc1nc2ccccc2s1	2.4	-12.3	-15.9	12.4%	2.4
CCn1c(N)c(C(=O)NC2CCCCC2)sc1=S	-4.4	-14.7	7.3	-2.0%	-1.2
Cc1nc([N+](=O)[O-])cn1CC(O)c1ccc(-c2ccccc2)cc1 (stereo not drawn)	nt	nt	-3.1	6.0%	3.0
COc1cccc2cc(C(=O)N(Cc3ccccc3)CC3CCCO3)c(=O)oc12 (stereo not drawn)	-1.4	-13.3	-9.9	-5.7%	-1.7

Ordered by number of heavy atoms (ascending): three of the compounds above
SMILES	Arbovirus inh	YopH PTP inh	Mtb bLac sens	Mtb H37Rv	RecA splice inh	others
Cc1ccccc1NC(=O)CCCSc1nc2ccccc2s1	2.4	-12.3	-15.9	12.4%	2.4
COc1cccc2cc(C(=O)N(Cc3ccccc3)CC3CCCO3)c(=O)oc12 (stereo not drawn)	-1.4	-13.3	-9.9	-5.7%	-1.7
Cc1c(N2C(=O)C(C)SC23C(=O)Nc2ccccc23)c(=O)n(-c2ccccc2)n1C (stereo not drawn)	-2.5	-36.1	-12.7	-12.5%	0.1

The results go on.
SMILES	Arbovirus inh	YopH PTP inh	Mtb bLac sens	Mtb H37Rv	RecA splice inh	others
CCOC(=O)COc1ccccc1/C=N\NC(=O)c1cc2c(ccc3ccccc32)o1	nt	nt	15.7	nt	-20.6
O=C(NCc1ccc(Cl)cc1)c1ccc(CSc2nc3ccncc3[nH]2)cc1	nt	nt	57.2	-0.6%	-0.4
COc1ccc(C(=O)C[n+]2ccccc2C)cc1	6.2	-1.9	0.5	4.7%	1.8
CC(C)NCC1CCc2cc(CO)c([N+](=O)[O-])cc2N1 (stereo not drawn)	nt	nt	3.3	-5.3%	2.6
CC(C)c1ccc(NC(=O)COc2ccccn2)cc1	8.0	nt	-3.0	2.1%	-0.5
COc1cc(Cl)c(C)cc1NC(=O)CCCN1C(=O)CCC1=O	3.8	-5.7	0.1	-3.0%	nt
COC(=O)Cc1ccc(NC(=S)N2CCN(c3ccc(OC)cc3)CC2)cc1	3.5	-5.3	-1.0	nt	-1.8
C=CCSc1nnc(CNC(=O)c2ccc(Cl)cc2)n1CC	2.8	nt	5.8	-0.5%	1.1
CCCNC(=S)N1CCC(NC(=O)C2CCCCC2)CC1	5.9	-96.8	6.0	-11.2%	0.1
Oc1ccccc1/C=N/Nc1nccnc1Cl	-19.2	1.5	66.8	-9.1%	-0.4
O=c1[nH]nc(SCc2nnc(-c3cccc(Cl)c3)o2)n1C1CCCCC1	nt	nt	-6.8	-0.3%	1.6
COc1ccc(C(c2c[nH]c3ccccc23)c2c[nH]c3ccccc23)cc1O	-45.6	-21.4	1.1	-2.8%	28.0
O=c1[nH]c(=S)n(-c2ccccc2F)c(O)c1C=Nc1ccc(N2CCOCC2)cc1	-20.1	nt	5.8	-1.0%	-0.2
COc1ccc(C2/C(=C(/O)c3ccc(F)cc3)C(=O)C(=O)N2CCCN2CCOCC2)cc1OC (stereo not drawn)	nt	nt	2.7	nt	0.6
O=C(Nc1ccc(F)c(F)c1)c1ccc2c(c1)OCO2	-3.8	-46.3	0.9	-6.4%	-0.4
COC(=O)CSc1nnc(CNc2nc(-c3ccccc3)cs2)n1C	0.6	5.0	-8.1	-9.2%	-0.7
COc1cc(C2C(N3C(=O)c4ccccc4C3=O)C(=O)N2c2ccc(C)c(C)c2)cc(OC)c1OC (stereo not drawn)	-1.3	-29.8	-0.8	-7.6%	4.5
COc1cc(C(=O)NC(C)c2cnn(-c3ccccc3C)c2C)cc(OC)c1OC (stereo not drawn)	1.0	nt	-2.8	-5.8%	0.2
C/C(CC(=O)NC1CCCCC1)=N\NC(=O)c1ccccn1	0.8	nt	99.6	58.8%	-3.0
CCCCCCC(C)OC(=O)Nc1cccc2ccccc12 (stereo not drawn)	nt	nt	1.8	-2.6%	-7.6
O=C1CC(c2ccc(Cl)cc2)CC(O)=C1C=NCc1ccc(Cl)c(Cl)c1 (stereo not drawn)	-9.8	-26.8	?	-8.0%	-3.2
COc1ccc(CCN2C(=O)C3C4C=CC(C4)C3C2=O)cc1OC (stereo not drawn)	0.5	-46.6	-3.0	-0.5%	-0.5
COc1ccc(OC)c(C2C=C(C34CC5CC(CC(C5)C3)C4)NC(=S)N2)c1 (stereo not drawn)	-21.3	-6.7	12.9	13.9%	8.2
CC(=O)Oc1ccc2c3c(c(=O)oc2c1C)CCCC3	nt	nt	41.0	nt	-5.3
O=C1C2C(c3ccccc3)C=CC(c3ccccc3)C2C(=O)N1c1ccccn1 (stereo not drawn)	1.5	-17.4	-0.1	-3.0%	3.2
CC(=O)c1cc(C#N)c(Oc2ccc(Cl)cc2Cl)nc1C	nt	-41.6	-0.5	-1.1%	-0.7
COc1ccc(NC(=O)c2cc(S(=O)(=O)N3CCCC3)oc2C)cc1	nt	nt	-5.5	6.7%	nt
COc1ccccc1C(=O)NCCn1cc(SCC(=O)Nc2nnc(C)s2)c2ccccc21	-1.1	-16.2	3.2	12.0%	-2.5
Cc1ccsc1C1C(C#N)=C(N)OC2=C1C(=O)CCC2 (stereo not drawn)	-5.3	nt	-0.4	0.3%	3.8
COc1ccccc1CC(=O)N1CCN(c2ccccn2)CC1	-3.7	-34.2	-9.0	-12.7%	-2.6
COc1ccc(CNC(=O)CN(CC2CCCO2)C(=O)CNS(=O)(=O)c2ccccc2)cc1 (stereo not drawn)	-2.7	-38.7	6.6	12.7%	-1.9
O=C(c1ccc2c(c1)ncn2C1CCCCC1)N1CCC2(CC1)OCCO2	0.0	-22.3	-17.4	-4.3%	-2.9
O=C(CN1N=C(C(F)(F)F)CC1(O)c1ccc([N+](=O)[O-])cc1)c1ccccc1 (stereo not drawn)	-2.9	-22.6	-6.6	-11.8%	3.1
COC(=O)CSc1nnc(-c2cnccn2)n1C	8.7	36.2	?	-2.2%	-1.8
C=CCOc1ccccc1CN1CCN(CCc2ccccc2)C(CCO)C1 (stereo not drawn)	nt	nt	-1.0	nt	0.5
COc1ccccc1CNc1nc(S(=O)(=O)c2ccccc2)c(Cl)s1	-2.9	-16.3	-0.4	4.6%	4.2

Brought forward from above: 6 entries; new compounds follow.
SMILES	Arbovirus inh	YopH PTP inh	Mtb bLac sens	Mtb H37Rv	RecA splice inh	others
COc1ccc(CNC(=O)CN(CC2CCCO2)C(=O)CNS(=O)(=O)c2ccccc2)cc1 (stereo not drawn)	-2.7	-38.7	6.6	12.7%	-1.9
O=C(c1ccc2c(c1)ncn2C1CCCCC1)N1CCC2(CC1)OCCO2	0.0	-22.3	-17.4	-4.3%	-2.9
O=C(CN1N=C(C(F)(F)F)CC1(O)c1ccc([N+](=O)[O-])cc1)c1ccccc1 (stereo not drawn)	-2.9	-22.6	-6.6	-11.8%	3.1
COC(=O)CSc1nnc(-c2cnccn2)n1C	8.7	36.2	?	-2.2%	-1.8
C=CCOc1ccccc1CN1CCN(CCc2ccccc2)C(CCO)C1 (stereo not drawn)	nt	nt	-1.0	nt	0.5
COc1ccccc1CNc1nc(S(=O)(=O)c2ccccc2)c(Cl)s1	-2.9	-16.3	-0.4	4.6%	4.2
CC1CC(C)C[N+](=C2C=C(N3CCCC3)CC(C)(C)C2)C1 (stereo not drawn)	12.0	nt	nt	-0.9%	-0.1
Cc1cc(NC(=O)CS(=O)(=O)c2c[nH]c3ccccc23)no1	nt	nt	7.7	nt	-1.0
Cc1cc(C(=O)Nc2ccncc2)c2ccccc2n1	nt	nt	-2.0	nt	-1.2
CN(C)c1ccc(CN(C(=O)c2ccc(Cl)c([N+](=O)[O-])c2)C2CCS(=O)(=O)C2)cc1 (stereo not drawn)	nt	nt	4.1	-7.3%	-0.6
O=C(c1ccc(O)cc1)c1ccc(C(=O)c2ccc(O)cc2)cc1	-8.9	-15.0	-6.2	-2.1%	3.5
Cc1nc2ccc(-c3nc4ccccc4o3)cc2[nH]1	-3.7	-33.8	6.0	-2.8%	-0.9
O=C(CNC(=O)c1ccc(Cl)cc1Cl)OCC(=O)N1CCN(c2ccccc2)CC1	nt	nt	2.3	nt	-1.5
CCn1c(=S)[nH]c2scc(-c3cccs3)c2c1=O	3.1	nt	nt	8.1%	3.8
COc1ccc(-c2csc(Nc3ncccc3C)n2)cc1	7.6	-13.9	97.1	12.7%	18.0
CCC(=O)Nc1ccc(C(=O)NCCCn2ccnc2)cc1	-0.8	nt	3.5	-4.3%	0.6
C=CCOC(=O)c1c(C)nc2cc3c(cc2c1C)OCO3	-6.9	-6.7	8.1	11.7%	-0.4
COC(=O)C1CSC(C(=O)OC)N1C(=O)Nc1ccc(Cl)cc1 (stereo not drawn)	7.7	-29.5	-9.4	-8.3%	1.1
Cc1sc(N)nc1-c1ccc2c(c1)OCCO2	nt	nt	-4.6	nt	-2.0

From PubChem
